Screening data as filed in PubChem BioAssay.
Hsc70 ATP site: Hsc70 inhibitors, probe displacement, primary screen, biochemical, fluorescence polarization (AID 568); Hsc70 fluorescence polarization, probe displacement; higher % means a stronger effect; strong numbers were not always called active; displacement, % at 20 µM, or IC50 in µM where a hit was titrated; 83,000 tested, under 10 active;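 active = displacement above 50% without optical interference and an IC50 on retest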;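 also: ATPase domain with a fluorescein-tagged ATP probe; 0% = vehicle and 100% = excess ADP; read after one hour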
MT1-MMP promoter: MT1-MMP gene expression reporter suppression – cell-based, luciferase reporter, luminescence (AID 618) | MT1-MMP promoter luciferase reporter cells, luminescence | calls from a first round at 10 µM; hits with a dose series show EC50 in µM | actives 0.62% (n = 87,000);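 active = over half of the reporter light lost at 10 µM or EC50 under 50 µM; inactive = the rest and hits that failed the dose series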;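 also: actives suppress MT1-MMP promoter-driven transcription so potencies describe inhibitors; HT1080 fibrosarcoma cells; overnight exposure; toxic or luciferase-blocking compounds were not removed from the actives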
WNV NS2B-NS3 inh: inhibitors of West Nile virus NS2B-NS3 protease | z-score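 (tested at a level between 10 and 100 µM)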 | actives 0.18% (n = 65,000) | WNV NS2B-NS3 protease, fluorogenic substrate Ex360/Em465; stronger effect = lower value | AID 577 | P06935;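 active = z-score at -3 or under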;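 also: score is relative to mean and spread of the compound wells of a plate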
Target sequence (P06935 1371-1501 limits assumed): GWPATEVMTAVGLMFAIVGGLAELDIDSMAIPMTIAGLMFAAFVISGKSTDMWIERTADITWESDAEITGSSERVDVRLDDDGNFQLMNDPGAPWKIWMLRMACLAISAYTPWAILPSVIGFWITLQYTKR
Target sequence (P06935 1502-1679 limits assumed): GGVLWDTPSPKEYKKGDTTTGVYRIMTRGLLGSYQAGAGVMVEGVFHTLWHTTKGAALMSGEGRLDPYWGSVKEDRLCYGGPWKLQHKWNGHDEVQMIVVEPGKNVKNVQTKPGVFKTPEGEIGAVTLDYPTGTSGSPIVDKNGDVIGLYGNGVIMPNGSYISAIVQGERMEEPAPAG
An asterisk follows results filed as active; i = inactive; nt = not tested or not shown.

Order of results – Hsc70 ATP site, MT1-MMP promoter, WNV NS2B-NS3 inh
> O=C(NCCN1CCN(Cc2ccccc2)CC1)C1c2ccccc2C(=O)N2CCc3ccccc3C12 (stereo unspecified)
 : 2.9%, i, 0.21
> CCOC(=O)C1CCN(C(=O)Nc2ccc(Cl)cc2)CC1
 : -7.4%, i, 0.31
> CC1(C)CC(=O)C=C(NCc2ccncc2)C1
 : 0.6%, i, 0.45
> COCCN(C(=O)CNC(=O)c1ccco1)C(C(=O)NC1CCCCC1)c1cccc(OC)c1 (stereo unspecified)
 : 0.7%, i, -0.23
> COC(=O)c1sc(N)c(C(=O)OC)c1CSc1nnnn1C
 : -6.9%, i, -1
> Cc1ccc(C(=O)O)cc1S(=O)(=O)N1CCCC1
 : 7.2%, i, nt
> O=C(Cc1ccccc1)N1CCC(C(=O)N2CCN(c3ccc(F)cc3)CC2)CC1
 : 3.2%, i, nt
> Cn1c(=O)c2[nH]cnc2n(-c2ccccc2)c1=O
 : 4.3%, i, -1.1
> COc1ccc(-n2nnnc2SCC(=O)Nc2ccc3c(c2)OCCO3)c(OC)c1
 : 8.1%, i, -1.6
> Cc1cccc(OCCn2nc(C(=O)O)c3ccccc3c2=O)c1
 : 4.3%, i, nt
> CC1(C)CC(NC(=O)C(F)(F)F)CC(C)(C)N1OC(=O)c1ccco1
 : -3.2%, i, -0.61
> COc1ccc(NC(C)=O)cc1NC(C)C(=O)Nc1cccc2ccccc12 (stereo unspecified)
 : 1.7%, i, nt
> O=S(=O)(N1CCCCC1)n1c(Cc2ccccc2)nc2ccccc21
 : 6.7%, i, -0.15
> CCOc1ccccc1N1CC(C(=O)Nc2ccc(C(=O)O)cc2)CC1=O (stereo unspecified)
 : 3.8%, i, 0.29
> CC(=O)NNc1ccc(C(F)(F)F)cc1[N+](=O)[O-]
 : 1.1%, i, nt

The list goes on:
Order of results – Hsc70 ATP site, MT1-MMP promoter, WNV NS2B-NS3 inh
> Cn1c(=O)[nH]c(=O)c2[nH]c(N(Cc3ccccc3)Cc3ccccc3)nc21
 : -5.0%, i, -0.36
> Cn1c(C(=O)NCCC2=CCCCC2)cc2c(=O)n3ccccc3nc21
 : -6.2%, i, -0.11
> O=[n+]1c2c(n([O-])c3cc(F)ccc31)CCCC2
 : 1.9%, i, 0.15
> CCOC(=O)c1c(C)[nH]c(/C(C)=N/O)c1C
 : -1.4%, i, -0.27
> Cc1noc(C)c1S(=O)(=O)N1CCCC(C(=O)Nc2ccc(Cl)cn2)C1 (stereo unspecified)
 : 2.0%, i, -1.1
> CCN(CC)S(=O)(=O)c1ccc2[nH]c(=O)[nH]c2c1
 : 3.6%, i, 0.85
> O=C1NCCCC2c3c(cc(Br)c(O)c3Br)OC12N1CCCCC1 (stereo unspecified)
 : 3.4%, i, nt
> Cc1cccc(N2C(=O)CC(N(C(=O)c3ccco3)c3cccc(C)c3)C2=O)c1 (stereo unspecified)
 : 2.5%, i, -0.11
> Cc1c(C)c2ccc(OC3CCCCC3=O)cc2oc1=O (stereo unspecified)
 : 7.2%, i, 0.04
> CS(=O)(=O)Nc1ccc(C(=O)NCCSCc2ccco2)cc1
 : -0.3%, i, -0.5
> CCOC(=O)CSc1cc(C)nc(N)n1
 : -0.7%, i, 0.76
> Cc1cc(NS(=O)(=O)c2ccc(NC(=O)CCCC(=O)O)cc2)nc(C)n1
 : 0.2%, i, -0.7
> COc1ccc(C(NC(C)=O)c2ccc3cccnc3c2O)c(OC)c1 (stereo unspecified)
 : 2.2%, i, 1.7
> COCCN(C(=O)CNC(=O)c1cccs1)C(C(=O)NC1CCCCC1)c1ccco1 (stereo unspecified)
 : -1.2%, i, 0.44
> COc1ccccc1CN(Cc1cc2c(C)ccc(C)c2[nH]c1=O)Cc1nnnn1Cc1ccco1
 : -20%, i, -0.44

(continued)
Order of results – Hsc70 ATP site, MT1-MMP promoter, WNV NS2B-NS3 inh
> CCCC1(C(=O)O)NC(c2ccccc2O)C2C(=O)N(c3cccc(Cl)c3)C(=O)C21 (stereo unspecified)
 : 0.4%, i, 2.2
> COc1ccc(OC)c(S(=O)(=O)N2CCN(C34CC5CC(CC(C5)C3)C4)CC2)c1
 : 3.4%, i, -0.41
> CCCc1cc(C(=O)NCC(C)C)no1
 : -0.3%, i, 0.28
> CC1CCCCN1C(=O)c1ccc(C(=O)N2CCCCC2C)cc1 (stereo unspecified)
 : -4.0%, i, 0.67
> O=C1CCC(Cc2ccccc2)N1 (stereo unspecified)
 : 3.9%, i, 0.78
> CCOC(=O)C1CCCN(Cc2cc(Br)ccc2OC)C1 (stereo unspecified)
 : -6.6%, i, -0.91
> CC(C)c1ccc(/C=C2\CC/C(=C\C=N\N(C)C)C2=O)cc1
 : -2.2%, i, nt
> Cc1ccc2c(c1)N(CCCC(=O)NCC1COc3ccccc3O1)C(=O)CO2 (stereo unspecified)
 : -6.2%, i, -0.66
> CC(C)(C)n1nnnc1C(c1cccs1)N(Cc1cccnc1)CC1CCCO1 (stereo unspecified)
 : 0.0%, i, 0.82
> Cc1ccc2oc(-c3cccc(NC(=O)c4ccc(Br)o4)c3C)nc2c1
 : -3.5%, i, nt
> CCOC(=O)C1CCCN(C/C(O)=C(\C#N)c2nc(-c3ccc(Cl)cc3)cs2)C1 (stereo unspecified)
 : 4.1%, i, -0.04
> CC(=O)c1cccc(NC(=O)C2CCCN(S(=O)(=O)c3ccc(F)cc3)C2)c1 (stereo unspecified)
 : 0.1%, i, -0.24
> CC(=O)c1cccc(NC(=O)Oc2ccccc2)c1
 : -2.2%, i, -0.83
> Cn1c(=O)cc(SCC(=O)N2CCN(Cc3ccc4c(c3)OCO4)CC2)c2ccccc21
 : 4.7%, i, 1.4
> CCOc1cccc(C(=O)N2CCCCC2c2cccnc2)c1 (stereo unspecified)
 : 0.2%, i, 0.0031

Other records follow.
Order of results – Hsc70 ATP site, MT1-MMP promoter, WNV NS2B-NS3 inh
> CN(C)CCC(=O)NCC1OCCc2ccccc21 (stereo unspecified)
 : -2.2%, i, nt
> COc1ccc(C(C)C)cc1S(=O)(=O)N1CCN(C)CC1
 : 0.8%, i, -0.29
> O=C(CCCSc1nc2ccccc2[nH]1)Nc1nnc(-c2ccccc2)o1
 : -4.4%, i, 0.25
> N#Cc1c(NC(=O)CN2CCOCC2)oc(-c2ccccc2)c1-c1ccccc1
 : -5.0%, i, -0.41
> COc1ccc(-c2cc(C(=O)N3CCc4ccccc4C3)no2)cc1OC
 : 2.6%, i, 0.03
> CCc1ccc(C2N(c3ccc(OC)cc3)C(=O)C3CCCN32)cc1 (stereo unspecified)
 : 1.6%, i, -1.1
> CCC(C)(C(=O)NC1CCCC1)N(Cc1ccco1)C(=O)c1ccc2c(c1)OCO2 (stereo unspecified)
 : -5.0%, i, -0.44
> COc1ccccc1CNC(=O)C(C)NS(=O)(=O)c1ccc(Br)cc1 (stereo unspecified)
 : -3.7%, i, nt
> O=C(Cn1cc2c(n1)CCCC2)N1CCCc2ccccc21
 : 4.4%, i, -1.1
> Nc1c(N2CCCC2)cc(Cl)c2nonc12
 : 7.0%, i, 0.5
> CC(c1ccccc1)C1CC(=O)N(c2ccc(C(=O)O)cc2)C1=O (stereo unspecified)
 : -7.5%, i, 1.1
> Cc1cc(C)n(C(=O)CSc2nnc(SCC(=O)n3nc(C)cc3C)s2)n1
 : -11%, i, 0.01
> COc1cccc(C(=O)CSc2nnc(-c3cc(OC)cc(OC)c3)o2)c1
 : -0.5%, i, 0.91
> O=C1NC(c2ccc(Br)cc2)Nc2sc3c(c21)CCC3 (stereo unspecified)
 : 0.6%, i, nt
> Cc1ccc(-c2nc3cnccn3c2Nc2ccccc2)o1
 : -0.9%, i, 3.4

The list continues:
Order of results – Hsc70 ATP site, MT1-MMP promoter, WNV NS2B-NS3 inh
> COC(=O)c1cccc(NS(=O)(=O)c2ccc(OC)c(OC)c2)c1C
 : -2.7%, i, nt
> O=C(CSc1nc2c(c(=O)n1-c1ccc(Cl)cc1)SCC2)NCC1CCCO1 (stereo unspecified)
 : -2.9%, i, -0.6
> COc1ccc(NC(=O)Nc2ccc(N3CCCC3=O)cc2)cc1OC
 : -1.6%, i, 1.2
> O=c1c(-c2ccc(F)cc2)coc2cc(O)ccc12
 : 5.9%, i, 1.4
> CCCn1c(Sc2nnnn2-c2ccccc2)n[nH]c1=O
 : -0.6%, i, 0.38
> COC(=O)C1C(=O)NCC1c1ccc(C)cc1 (stereo unspecified)
 : -6.1%, i, nt
> O=C(CSc1nc2[nH]ncc2c(=O)n1-c1ccccc1Br)NCc1ccco1
 : -0.1%, i, 0.07
> CCOc1ccc(NS(=O)(=O)c2ccc3[nH]cc(C(=O)NCCOC)c(=O)c3c2)cc1
 : -6.1%, i, -0.71
> Clc1ccccc1C(c1nnnn1Cc1ccco1)N1CCN(Cc2ccco2)CC1 (stereo unspecified)
 : -2.8%, i, 1.1
> N#Cc1c(/N=C/c2ccc(Br)s2)sc2c1CCC2
 : 3.0%, i, nt
> O=C1CC(c2nc3ccccc3[nH]2)CN1Cc1ccccc1 (stereo unspecified)
 : 2.6%, i, -0.7
> CCOC(=O)C1CCN(C(=O)CN(c2ccc3c(c2)OCCO3)S(C)(=O)=O)CC1
 : 5.2%, i, nt
> Cc1ccc(S(=O)(=O)NC(=NC(C)C(=O)O)c2ccccc2)cc1 (stereo unspecified)
 : 3.2%, i, 0.43
> CCOc1ccc(CC(=O)Nc2c(C(=O)Nc3ccccc3)oc3ccccc23)cc1OCC
 : 1.1%, i, nt
> CC1(C)Cc2[nH]c(=S)c(C#N)cc2CO1
 : -1.0%, i, 2.7

Following part
Order of results – Hsc70 ATP site, MT1-MMP promoter, WNV NS2B-NS3 inh
> Cc1ccc2c(c1C)NC(C)CC2C (stereo unspecified)
 : -1.2%, i, -0.81
> Cc1oc2cc(O)ccc2c(=O)c1-c1cnn(-c2ccccc2)c1
 : -0.6%, i, -0.19
> O=C(c1cccc(C(=O)N2CCN(c3ccccc3F)CC2)c1)N1CCN(c2ccccc2F)CC1
 : 12%, i, 0.3
> COc1ccc(CCNC(=O)CC2Nc3ccccc3NC2=O)cc1OC (stereo unspecified)
 : 8.4%, i, -1.1
> Cn1c(Oc2ccc3c(c2)OCO3)nc2c1c(=O)n(Cc1ccccc1)c(=O)n2C
 : 3.6%, i, nt
> COc1ccc(S(=O)(=O)Nc2cc(C)ccc2OC)cc1C
 : 3.1%, i, 2.2
> CCCCC(=O)NC(=S)NNC(=O)CC
 : 4.1%, i, nt
> COc1ccc(-c2nnc(SCCc3ccccc3)n2N)cc1
 : -4.4%, i, -0.52
> COc1cc(/C=N/N=C(/N)c2nonc2N)cc(Br)c1OCc1cccc(C)c1
 : -0.3%, i, nt
> COc1ccc(C)cc1S(=O)(=O)N(C)CC(=O)NC1CCCCC1
 : -5.3%, i, -1.1
> COc1ccc2nc(NC(=O)C3CCCN(S(=O)(=O)c4c(C)noc4C)C3)sc2c1 (stereo unspecified)
 : -1.8%, i, 0.31
> Nc1nc(Cl)nc2c1ncn2[C@@H]1O[C@H](CO)[C@@H](O)[C@H]1O
 : -6.7%, i, -0.17
> CN(C)CCNC(=O)c1cc2ccccc2oc1=O
 : 0.0%, i, 0.38
> COc1ccc(OC)c(Nc2ncnc3c2cnn3-c2ccccc2)c1
 : 2.8%, i, 0.73
> Cc1ccc(CNC(=O)CSc2ncccn2)cc1
 : -1.9%, i, -0.35

Next section; it opens with the 5 that closed the last part.
Order of results – Hsc70 ATP site, MT1-MMP promoter, WNV NS2B-NS3 inh
> COc1ccc2nc(NC(=O)C3CCCN(S(=O)(=O)c4c(C)noc4C)C3)sc2c1 (stereo unspecified)
 : -1.8%, i, 0.31
> Nc1nc(Cl)nc2c1ncn2[C@@H]1O[C@H](CO)[C@@H](O)[C@H]1O
 : -6.7%, i, -0.17
> CN(C)CCNC(=O)c1cc2ccccc2oc1=O
 : 0.0%, i, 0.38
> COc1ccc(OC)c(Nc2ncnc3c2cnn3-c2ccccc2)c1
 : 2.8%, i, 0.73
> Cc1ccc(CNC(=O)CSc2ncccn2)cc1
 : -1.9%, i, -0.35
> CC(C)Cc1cc(C(=O)Nc2sc3c(c2C#N)CCCC3)no1
 : 5.1%, i, 1.3
> Cc1nn(CCCNC(=O)C2CCCO2)cc1Br (stereo unspecified)
 : -5.5%, i, -1.8
> COc1ccc(NC(=O)/C(C#N)=C\c2cc(C)n(-c3ccc(Oc4ccc([N+](=O)[O-])cn4)cc3)c2C)cc1
 : 3.4%, i, nt
> COc1cc2c(cc1OC)C(C(=O)NCc1cccnc1)C(c1cccnc1)N(C)C2=O (stereo unspecified)
 : -3.6%, i, 0.16
> CN(CC(=O)N1CCN(c2ccccc2F)CC1)S(=O)(=O)c1cnc[nH]1
 : 3.4%, i, nt
> CCCCCC(C)n1[nH]c(=O)cc1N (stereo unspecified)
 : 1.5%, i, nt
> Cc1nnc(NC(=O)Cc2cccs2)s1
 : -5.4%, i, 0.02
> Cc1cccc(OCCCC(=O)Nc2ccc(S(=O)(=O)Nc3onc(C)c3C)cc2)c1
 : 2.2%, i, -0.53
> CCc1c(C)nc(N)n2c(SCC(=O)Nc3ccccc3)nnc12
 : -0.2%, i, nt
> Cc1nc(CN2CCCC2=NC#N)n(-c2ccccc2)n1
 : -2.6%, i, 0.65
> CCOC(=O)c1cc2sc(C)cc2n1CC(=O)N1CCN(C(=O)c2ccco2)CC1
 : 0.2%, i, -0.58
> CCCCNC(=O)Nc1ccccc1C(=O)NCc1ccco1
 : -2.1%, i, -0.04
> O=C(Nc1cccnc1)c1ccccc1O
 : 4.6%, i, nt
> CN(C)S(=O)(=O)c1cccc(C(=O)NCC2CCCO2)c1 (stereo unspecified)
 : 1.1%, i, -0.14
